D2 PAM = positively modulates the human D2 dopamine receptor allosterically; potentiation, % at 10 µM; 340,000 compounds, 0.34% hits; HEK293 T-REx D2, calcium flux, EC20 dopamine potentiation;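 active = potentiation over 3 SD above the plate norm, cut at about 30% in these data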; also: 0% is about no effect
Target sequence (P14416 whole entry, looked up): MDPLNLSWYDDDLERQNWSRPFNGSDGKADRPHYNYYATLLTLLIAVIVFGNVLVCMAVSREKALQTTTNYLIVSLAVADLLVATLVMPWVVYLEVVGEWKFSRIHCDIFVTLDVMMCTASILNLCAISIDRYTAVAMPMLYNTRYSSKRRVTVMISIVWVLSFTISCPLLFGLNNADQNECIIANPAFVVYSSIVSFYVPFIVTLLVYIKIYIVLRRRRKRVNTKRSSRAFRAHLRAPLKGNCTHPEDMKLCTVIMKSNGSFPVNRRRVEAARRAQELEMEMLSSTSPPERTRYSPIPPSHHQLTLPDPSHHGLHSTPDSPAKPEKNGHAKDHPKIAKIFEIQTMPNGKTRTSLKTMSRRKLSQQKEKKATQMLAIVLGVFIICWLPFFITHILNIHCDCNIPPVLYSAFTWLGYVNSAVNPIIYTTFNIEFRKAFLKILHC
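Tetracycline-induced Hek293 Trex D2 cells, force-coupled to calcium, loaded with no-wash calcium dye. Compound added with 180 s kinetic read for agonism, then EC20 dopamine and a further 180 s read for potentiation.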
D1 ag = agonists of human D1 dopamine receptor. HEK293 T-REx D1 cells, calcium flux, agonist mode. activation, % at 2 µM. 360,000 compounds, 1% hits; also: 0% is about no effect
Target sequence (P21728 whole entry, looked up): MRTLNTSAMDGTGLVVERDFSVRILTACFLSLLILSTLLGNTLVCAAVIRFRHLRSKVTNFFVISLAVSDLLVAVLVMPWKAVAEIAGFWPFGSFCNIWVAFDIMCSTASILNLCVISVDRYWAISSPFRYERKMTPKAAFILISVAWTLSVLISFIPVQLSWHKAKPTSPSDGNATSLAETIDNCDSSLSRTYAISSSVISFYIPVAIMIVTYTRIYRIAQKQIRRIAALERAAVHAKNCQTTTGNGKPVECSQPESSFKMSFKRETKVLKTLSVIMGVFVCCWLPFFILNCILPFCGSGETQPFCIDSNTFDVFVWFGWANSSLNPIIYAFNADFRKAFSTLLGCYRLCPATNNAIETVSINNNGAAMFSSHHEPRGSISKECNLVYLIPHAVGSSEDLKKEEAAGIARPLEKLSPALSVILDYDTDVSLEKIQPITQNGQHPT
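Inducible HEK293 T-REx D1 cells, force-coupled to calcium signalling, were plated at 4000 cells/well with tetracycline and held overnight at 30 C. After no-wash calcium dye loading, compound-evoked calcium rise over 180 s flagged agonists.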
D2 ag = D2 dopamine receptor (human) agonism. P14416. HEK293 T-REx D2 cells, calcium flux agonist mode. activation, % at 2 µM. 340,000 compounds, 0.53% hits;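 active = activation over 3 SD above normal in the single-dose calcium agonist read, cut at about 30% in these data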; also: 0% is about no effect
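Agonism scored from kinetic calcium signal (1 read/sec, 180 s) following compound pin transfer, after a 10 s baseline. Cells: HEK293 Trex line expressing inducible D2 receptor coupled to calcium, dye-loaded after overnight culture at 30 C.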
TRHR enhancer = allosterically enhances the human TRH receptor | 360,000 compounds, 0.66% hits | enhancement, % at 2 µM | P34981 | TRHR cells, fluo-8 calcium fluorescence, EC20 TRH enhancement | AID 493056; in the data active = enhancement above about 30%; also: 0% is about no effect
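TRHR-expressing cells loaded with fluo-8 calcium dye were read kinetically (ex 480/em 530) during compound addition, then stimulated with an EC20 of TRH (10 nM final). Enhancement of the Gq-mediated intracellular calcium response was scored.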
D2 antagonist = antagonizes the human D2 dopamine receptor | inhibition, % at 10 µM | 340,000 compounds, 2% hits | P14416 | HEK293 TREx D2 cells, calcium flux, dopamine EC80 | AID 485344; in the data active = inhibition above about 30%; also: 0% is about no effect
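Dopamine at EC80 is the agonist stimulus; test compounds precede it by 180 s. Calcium flux read kinetically in a force-coupled, inducible HEK293 T-REx D2 cell line.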
D1 potentiator = potentiators of human D1 dopamine receptor; HEK293 TREx D1 cells, calcium flux, dopamine EC20 potentiation; potentiation, % at 10 µM; 360,000 compounds, 0.036% hits; AID 504651; in the data active = potentiation above about 30%; also: 0% is about no effect
TRHR agonist = TRH receptor (human) agonism; TRHR cells, calcium flux fluo-8, FDSS agonist mode; activation, % at 2 µM; 360,000 compounds, 0.18% hits; AID 493084; also: 0% is about no effect
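Fluo-8-loaded TRHR cells; 10 s baseline, compound added, kinetic Ca2+ fluorescence read 1/s, agonist mode.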
D1 antag = human D1 dopamine receptor antagonism. activity change, negative = inhibition, % at 10 µM. HEK293 TREx D1 cells, calcium flux, dopamine EC80; stronger effect = lower value. 360,000 compounds, 3.2% hits. AID 504652. P21728; in the data active = activity change below about -30%; also: % is scaled to controls: 0 for no effect and ±100 for the full control effect
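Tetracycline-induced HEK293 Trex D1 cells, force-coupled to calcium, dye-loaded; compounds added and read 180 s, then EC80 dopamine added and calcium flux tracked kinetically another 180 s.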
Numbers without * were called inactive; x = no result given; & = joins results of further samples. Rule as the data show it, unless noted: active = activation above about 30%; inactive = the rest.

SMILES	D2 PAM	D1 ag	D2 ag	TRHR enhancer	D2 antagonist	D1 potentiator	TRHR agonist	D1 antag
CC1Cc2cc(/C(O)=C3\C(=O)C(=O)N(Cc4ccncc4)C3c3ccccc3F)ccc2O1 (stereo not drawn)	1	2	0.6	3	-7	-4	0.0	-12
COC(=O)C1C(O)=C(C=NCC(C)N=CC2=C(O)C(C(=O)OC)C(C)(C)CC2=O)C(=O)CC1(C)C (stereo not drawn)	-5	3	-0.1	-2	-1	-2	-0.3	5
Cc1ccc(S(=O)(=O)CC(=O)c2cc3cccc(C)c3oc2=O)cc1	-5	3	0.8	-4	-1	1	0.2	-4
O=C(NCc1cccs1)c1cc(-c2ccccn2)nc2ccc(Br)cc12	8	1	2.9	31*	-36	-5	0.5	9
O=C(NCc1ccco1)c1ccc(Cn2c(=O)c3ccccc3n(Cc3cccc(F)c3)c2=O)cc1	0	10	1.3	-8	18	-2	2.2	8
Cc1ccccc1OCCSc1nnc(-c2ccncc2)n1C	-5	2	0.2	-2	-2	3	0.1	4
CCOC(=O)C1CCN(C(=O)CCCNC(=O)Cn2cnc3sc(C)c(C)c3c2=O)CC1	21	1	0.5	4	-5	-6	-0.4	-1
CCOC(=O)Nc1cccc(Nc2ccccc2)c1	-2	4	-0.7	1	-15	-4	-0.3	-8
Cn1c(N)c(C(=O)COc2ccc(Cl)cc2Cl)c(=O)n(C)c1=O	-8	3	x	-5	x	2	0.5	-6
Cc1ccc(NC(=O)c2sc3ncnc(N4CCN(c5ccccn5)CC4)c3c2C)c(C)c1	9	3	-1.4	-4	-12	-7	-0.8	-6
Cc1ccccc1OCCNC(=O)CSc1ccc(C(F)(F)F)cc1[N+](=O)[O-]	8	3	3.8	-15	10	-4	-0.3	-5
COc1ccc(C2C(C(C)=O)=C(O)C(=O)N2c2ccc(Br)cc2)cc1 (stereo not drawn)	2	5	0.1	-3	16	-3	1.1	3
CCCOc1cccc(C2C(C(=O)c3cc4ccccc4o3)=C(O)C(=O)N2c2cc(C)on2)c1 (stereo not drawn)	x	5	x	2	x	0	-0.1	-10
O=c1c2cc(N3CCOCC3)ccc2[nH]c(=S)n1CCCN1CCCCC1	2	-3	-1.0	-1	-14	-6	-1.0	0
CCN(CC)S(=O)(=O)c1ccc(C(=O)OCCNC(=O)c2cccnc2)cc1	-2	2	-0.1	2	-9	-5	-0.3	-6
O=c1c2cc(N3CCOCC3)ccc2[nH]c(=S)n1CCCN1CCCCCC1	-29	1	0.0	-3	39*	0	0.7	-10
CCCc1nc(SCC(=O)NNC(=O)c2ccc(OC)cc2)c2ccccc2n1	1	1	1.0	-2	15	3	-1.7	9
CSc1nc(Nc2ccc(C)cc2)c(C#N)c(-c2ccccc2)n1	-14	-1	-1.4	1	x	1	-0.9	-2
COc1ccccc1NC(=O)CN1CCC(n2c(C)nc3cc(F)ccc32)CC1	-1	2	0.5	5	-5	-11	2.0	8
Cn1c(C(=O)O)cc2c(=O)n3ccccc3nc21	0	2	0.8	-3	-11	-4	-0.2	12
O=C(c1ccc(Cl)nc1)N1CCN(S(=O)(=O)c2ccccc2)CC1	7	4	1.1	7	0	-4	0.4	-23
Fc1ccc(CSc2ccc3nnc(-c4cccnc4)n3n2)cc1	6	0	0.1	-6	-12	-6	-0.7	10
O=C1C(=O)N(Cc2ccncc2)C(c2cccc(O)c2)/C1=C(\O)c1ccc2c(c1)OCCO2 (stereo not drawn)	-7	4	0.8	1	1	-10	0.2	-9
O=C(COC(=O)CSc1ccc2ccccc2c1Br)NC1CC1	-2	16	14	2	-2	-4	-0.2	-21
CCCCc1nc2sc3c(SCC(=O)NCc4ccco4)ncnc3c2c2c1CCC2	-8	1	0.5	-1	16	0	0.6	-4
CSc1ccc(S(=O)(=O)Nc2ccc3c(c2)OCCO3)cc1	1	13	-2.9	-4	2	-3	-0.2	-30*
O=C(Nc1ccccc1Oc1ccccc1)c1cccc([N+](=O)[O-])c1	3	1	-1.6	-5	-7	-1	-0.2	1
Cc1cccc(C(=O)Nc2nnc(S(=O)(=O)N(C)Cc3ccccc3)s2)c1	-14	-1	1.7	0	x	0	0.5	13
CCOC(=O)c1c(NC(=O)c2ccccc2OCC)sc2c1CCC(CC)C2 (stereo not drawn)	-4	2	-0.5	-1	x	4	-0.6	-1
CC(CN1CCOCC1)C(=O)c1ccccc1 (stereo not drawn)	3	0	0.9	24	-1	1	1.2	0
O=C(Nc1nc2c(Br)cc(Br)cc2c(=O)s1)c1ccco1	8	2	-0.2	7	3	-1	0.2	-7
CC1(C)Cc2ccccc2C(C(=O)c2ccccc2)=N1	6	-1	-2.2	-1	-16	1	-1.5	-4
O=C1Nc2c(c(=O)[nH]c(=O)n2-c2ccccc2)C1(Nc1ncccn1)C(F)(F)F (stereo not drawn)	9	1	0.3	4	-4	-3	0.6	-2
CSc1n[nH]c(NCc2ccccc2)n1	5	2	1.0	14	-12	1	1.9	2
CCOc1ccc(C2C(C(=O)c3ccc(C)o3)=C(O)C(=O)N2c2cc(C)on2)cc1OC (stereo not drawn)	1	1	-0.2	-3	-7	-7	0.1	-7
O=C(O)c1cc2ccccc2c2cc(Br)ccc12	6	4	-3.1	6	-22	-1	-0.8	16
Cn1c(=O)c2c(ncn2CCC(=O)N/N=C/c2ccncc2)n(C)c1=O	-2	4	-0.2	7	7	1	0.5	-3
C=CCOc1cccc(C2/C(=C(\O)c3ccc4c(c3)OCCO4)C(=O)C(=O)N2Cc2cccnc2)c1 (stereo not drawn)	-2	4	-1.1	5	3	-12	0.5	18
CCc1nnc(SCc2cccc(Cl)c2)c2cc3sccc3n12	13	14	x	2	x	-1	-0.5	31
O=C(CSc1cn[nH]n1)Nc1ccccc1F	18	2	0.3	2	-8	-3	0.1	4

Given with two lines to a compound: part of the list above.
Results follow in this order: D2 PAM	D1 ag	D2 ag	TRHR enhancer	D2 antagonist	D1 potentiator	TRHR agonist	D1 antag
> COC(=O)C1C(O)=C(C=NCC(C)N=CC2=C(O)C(C(=O)OC)C(C)(C)CC2=O)C(=O)CC1(C)C (stereo not drawn)
    -5	3	-0.1	-2	-1	-2	-0.3	5
> Cc1ccc(S(=O)(=O)CC(=O)c2cc3cccc(C)c3oc2=O)cc1
    -5	3	0.8	-4	-1	1	0.2	-4
> O=C(NCc1cccs1)c1cc(-c2ccccn2)nc2ccc(Br)cc12
    8	1	2.9	31*	-36	-5	0.5	9
> O=C(NCc1ccco1)c1ccc(Cn2c(=O)c3ccccc3n(Cc3cccc(F)c3)c2=O)cc1
    0	10	1.3	-8	18	-2	2.2	8
> Cc1ccccc1OCCSc1nnc(-c2ccncc2)n1C
    -5	2	0.2	-2	-2	3	0.1	4
> CCOC(=O)C1CCN(C(=O)CCCNC(=O)Cn2cnc3sc(C)c(C)c3c2=O)CC1
    21	1	0.5	4	-5	-6	-0.4	-1
> CCOC(=O)Nc1cccc(Nc2ccccc2)c1
    -2	4	-0.7	1	-15	-4	-0.3	-8

Next part
SMILES	D2 PAM	D1 ag	D2 ag	TRHR enhancer	D2 antagonist	D1 potentiator	TRHR agonist	D1 antag
COc1ccc(-n2cc(-c3ccccc3)nc2SCC(=O)Nc2ccccc2)cc1Cl	-1	8	0.1	-1	x	-1	8.0	2
COc1ccc(CNC(=O)c2cc(-c3ccc(Br)s3)nc3ccccc23)cc1	-8	6	0.7	2	x	-1	0.8	-21
CC(C)C(OC(=O)c1nsc(Cl)c1Cl)C(=O)NCC1CCCO1 (stereo not drawn)	11	0	0.5	9	-7	-6	0.7	3
CCn1c(SCC(=O)Nc2ccc(C(=O)OC)cc2)nnc1-c1cccs1	x	1	-0.3	4	6	-4	-2.6	6
Cc1cccc(N(C(=O)c2csnn2)C(C(=O)NC2CCCC2)c2ccncc2)c1 (stereo not drawn)	2	0	0.0	20	-1	-3	-1.1	6
Cc1ccc(-n2c3c(c(=O)[nH]c2=O)C(NS(=O)(=O)c2ccc(C)cc2)(C(F)(F)F)C(=O)N3)cc1 (stereo not drawn)	-5&11	1&-1	-0.5&0.6	-8&4	-2	-2&0	-0.9&-0.5	-4&-16
O=C1OC(c2ccc(Br)cc2)=N/C1=C\c1ccco1	-3	1	1.6	3	-11	8	1.2	8
CCn1c(Cc2ccccc2)nnc1SCC(=O)Nc1ccccc1	-7	1	-1.1	24	-1	-1	0.2	-30*
CSc1ccc(-c2nc(CN(C)C3CCOC3)c(C)o2)cc1 (stereo not drawn)	-6	0	0.1	5	-7	-3	-0.7	-17
O=C1C2CCCN2C(c2cccs2)N1c1ccc(Cl)cc1 (stereo not drawn)	-1	1	-0.6	1	2	1	0.0	-12
O=C1N2CCCc3cccc(c32)C12Nc1ccccc1S2 (stereo not drawn)	4	0	0.7	0	-7	-4	3.0	-11
COc1cccc(N(C(=O)c2cnccn2)C(C(=O)NC2CCCCC2)c2ccc(Cl)cc2)c1 (stereo not drawn)	-3	1	0.4	-4	-9	-1	0.0	-3
Cn1c(=O)c2sccc2n2c(CCCC(=O)Nc3ccc(F)cc3F)nnc12	32*	-3&-1	0.8&1.2	3&3	4	2&0	0.0&-0.4	6&-1
CCn1c(SCC(=O)N(C(C)C)C(C)C)nnc1-c1cc2ccccc2cc1O	13	2	-1.7	-2	-15	1	-3.1	1
O=C1C(=O)N(Cc2cccnc2)C(c2cccc(F)c2)/C1=C(/O)c1ccc2c(c1)OCO2 (stereo not drawn)	-5	2	0.7	-4	1	-10	2.2	-62*
O=C(NCc1ccccc1)c1c(O)c2ccccc2[nH]c1=O	0	2	0.4	2	-6	-3	0.1	0
Cc1cc(N2C(=O)C(O)=C(C(=O)c3cc4ccccc4o3)C2c2ccc(Cl)cc2)no1 (stereo not drawn)	-5	6	0.0	-1	-12	0	1.6	8
S=C(Nc1ccccc1)Nc1ccccc1-n1cccc1	-4	3	0.1	-1	4	1	-0.4	11
CCOc1ccccc1NC(=O)c1cn(C2CCCCC2)c(=O)c2c1c1ccccc1n2C	x	-1	0.0	-2	x	18	0.7	-8
Brc1cc(Br)c2nc3c(cc2c1)CCC3	-1	1	0.0	-5	11	7	-0.4	0
CCOc1ccc(N/C(SCc2cccc([N+](=O)[O-])c2)=C(/C#N)C(N)=O)cc1	13	1	-0.8	1	-5	-6	-1.5	-14
Cc1cc(Br)cc2c(C(=O)NCC3CCCO3)cc(-c3ccccc3)nc12 (stereo not drawn)	8	4	1.1	3	5	1	0.6	37
COc1ccc(S(=O)(=O)N2CCCCCC2)cc1C(=O)N(C)Cc1c(F)cccc1Cl	17	0	0.5	-2	-16	-5	0.1	6
CCCc1nc(-c2cc3ccc(C)cc3[nH]c2=O)no1	-1	2	0.2	2	14	-6	0.8	-3
CC1(C)CN(C(=S)Nc2ccc(F)cc2F)C1=O	1	3	0.4	20	-6	3	-0.2	-5
COc1ccc(/C=C(/Sc2nnc(-c3ccc(Cl)cc3)o2)C(=O)O)cc1	5	3	1.4	0	-16	-11	1.8	3
CCOc1ccc(NC(=O)c2sc3nc(-c4ccc(OC)cc4)cn3c2C)cc1	0	5	-2.0	-2	x	-2	0.1	9
COc1ccccc1-c1n[nH]c(=S)n1Cc1ccccc1	-4	3	1.2	3	17	3	-2.0	-3
CCOC(=O)N1CCN(C(=O)c2ccc3c(c2)NC(=O)/C(=C/c2ccccc2)S3)CC1	21	2	0.3	5	-14	-8	1.2	14
CN1c2ccccc2Oc2c(c(=O)n(C)c(=O)n2C)C1c1cccc([N+](=O)[O-])c1 (stereo not drawn)	x	1	x	-3	x	-4	-1.3	6
CCOC(=O)C1CCN(C(=O)Nc2ccc3nc(C)c(C)nc3c2)CC1	-7	0	0.7	-1	6	-8	-0.3	-25

An excerpt; rates above refer to the full screens.
